# Screens deposited in PubChem BioAssay by National Center for Advancing Translational Sciences (NCATS).
# PINK1 modulator = changes PINK1 expression; PINK1 immunofluorescence, high-content cytometry, 24 h; Potency, µM (top dose mostly 76.6 µM), without a hit: at the highest dose activation (PINK1 increase), actives largely listed as activators; 0.2% of 410,000 active; AID 624263; active = well fitted activation curve with a large enough effect; inconclusive = small, poorly fitted or top-dose-only effect; inactive = flat fitted curve, though single readings scatter; cell line not stated here;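 further: potency means the concentration at half of the fitted maximal effect; % of control where 0% means no effect; nearly all actives have a fitted effect of over 65% in size; a mitochondrial uncoupler was the plate control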
#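 Cells are seeded, rested 12 hours, then given compound at five concentrations or DMSO for 24 hours. After fixation, blocking and antibody staining, PINK1 amount and mitochondrial localization are scored; CCCP serves as control.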
# TRPML1 agonist = activates the human TRPML1 channel | TRPML1-expressing cells, Ca2+ dye fluorescence, FDSS; host cell line not named in the record; reference of the full effect not given here | AID 624414 | 0.12% of 410,000 active | activation, % (no concentration beside the values) | Q9GZU1; in the data active = activation above about 50%; inconclusive = about 30% to 50%; inactive = below about 30%; further: 0% is about no effect; the text of the record puts the active cut at 80%
# Target sequence (Q9GZU1 whole entry, looked up): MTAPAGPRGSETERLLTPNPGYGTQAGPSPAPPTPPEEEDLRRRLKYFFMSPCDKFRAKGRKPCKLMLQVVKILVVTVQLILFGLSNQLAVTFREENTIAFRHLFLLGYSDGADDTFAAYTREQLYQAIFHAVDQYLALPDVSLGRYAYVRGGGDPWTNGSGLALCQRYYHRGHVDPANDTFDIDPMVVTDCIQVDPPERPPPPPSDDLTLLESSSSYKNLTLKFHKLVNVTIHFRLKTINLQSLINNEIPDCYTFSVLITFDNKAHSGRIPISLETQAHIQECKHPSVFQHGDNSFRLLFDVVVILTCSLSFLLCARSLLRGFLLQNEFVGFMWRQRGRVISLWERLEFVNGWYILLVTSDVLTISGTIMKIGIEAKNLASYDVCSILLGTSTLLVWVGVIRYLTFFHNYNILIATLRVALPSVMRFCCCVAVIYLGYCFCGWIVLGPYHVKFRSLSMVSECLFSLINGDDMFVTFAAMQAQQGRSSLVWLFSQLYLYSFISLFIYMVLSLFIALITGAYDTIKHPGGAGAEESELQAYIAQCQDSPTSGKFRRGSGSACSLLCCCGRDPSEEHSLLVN
#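 Cells: TRPML1-DL, 1X Tet inducer, ~16 h at 37 degrees C/5% CO2. Dye: ABD Ca8 no-wash + quencher, 45-90 min RT. Read: 10 s baseline, compound add, 110 s agonist phase; 54-4 EC80 (4uM final), 110 s antagonist phase.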
# CtBP-E1A inh = blocks the CtBP interaction with E1A; AlphaScreen GST-E1A/His-CtBP binding, 1536-well; active compounds read low; control for the full effect not named in the record; activity change, % (no concentration beside the values); 0.49% of 340,000 active; AID 651724; in the data active means activity change below about -65%; inconclusive means about -30% to -65%; inactive means above about -30%; further: on the % scale 0 is the no-effect control and ±100 the full control effect
#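 GST-E1A and His-tagged CtBP (125 nM each as 5X stock) were preincubated with pin-transferred compound for 2 h at 37 °C in the dark, then glutathione donor and nickel acceptor beads were added for 1 h before AlphaScreen reading.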
# TRPML1 blocker = inhibitors of human TRPML1 channel. Q9GZU1. TRPML1-inducible cells, Ca2+ dye fluorescence, FDSS; active compounds read low; inhibition of EC80 agonist-evoked calcium signal. activity change, negative = inhibition, % (no concentration beside the values). 0.02% of 390,000 active; in the data active means activity change below about -50%; inconclusive means about -30% to -50%; inactive means above about -30%;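 further: stimulus is agonist 54-4 at its EC80 concentration; on the % scale 0 is the no-effect control and ±100 the full control effect; compound concentration not given in the record; the text of the record puts the active cut at -80%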
#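 Tet-induced TRPML1-DL cells loaded with Ca8 no-wash calcium dye were read kinetically on FDSS. Compound addition was followed by EC80 agonist 54-4 (4 uM final); inhibition was read over 110 s.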
# Six1-Eya2 inh = blocks human Six1 binding to Eya2. Q15475+O00167. AlphaScreen GST-Six1/His-Eya2 binding, biochemical; active compounds read low; control for the full effect not named in the record. activity change, % (concentration not given with the values). 0.56% of 360,000 active; in the data active = activity change below about -65%; inconclusive = about -30% to -65%; inactive = above about -30%; further: on the % scale 0 is the no-effect control and ±100 the full control effect
#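 GST-Six1 + His-Eya2 (5X stock: 250/500 nM); Tris pH 8.0, 300 mM NaCl, 0.05% BSA, 0.02% Tween 20; GSH donor/Ni acceptor beads; 1 h 37 °C dark; AlphaScreen readout.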
# D2 agonist = activates the human D2 dopamine receptor; DiscoveRx PathHunter D2 beta-arrestin, luminescence, 90 min; 100% = 57 uM dopamine signal; activation, % (concentration not given with the values); 0.084% of 360,000 active; in the data active = activation above about 40%; inconclusive = about 15% to 40%; inactive = below about 15%; further: compound concentration not given in the record; the text of the record calls up to 30% inactive
# Target sequence (P14416 whole entry, looked up): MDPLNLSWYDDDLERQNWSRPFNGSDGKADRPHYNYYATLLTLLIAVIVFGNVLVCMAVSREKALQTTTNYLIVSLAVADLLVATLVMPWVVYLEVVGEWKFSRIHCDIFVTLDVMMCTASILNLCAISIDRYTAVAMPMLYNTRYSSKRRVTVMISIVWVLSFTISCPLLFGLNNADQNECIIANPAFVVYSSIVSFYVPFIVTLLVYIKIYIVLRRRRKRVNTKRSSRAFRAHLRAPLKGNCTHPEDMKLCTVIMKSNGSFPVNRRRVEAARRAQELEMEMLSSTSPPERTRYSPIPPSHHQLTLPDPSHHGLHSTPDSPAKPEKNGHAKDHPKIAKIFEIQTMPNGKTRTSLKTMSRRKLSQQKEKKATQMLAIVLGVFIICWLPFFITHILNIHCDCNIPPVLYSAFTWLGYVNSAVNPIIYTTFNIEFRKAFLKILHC
#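 DiscoveRx PathHunter D2 beta-arrestin cells (2,100/well) attached overnight, then compound-stimulated 90 min at 37 C in HBSS/10 mM HEPES/0.1% Tween-20 buffer; beta-galactosidase complementation read by luminescence after 1 h at ambient temperature. Dopamine 57 uM final (EC100) as control.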
# Numbers without * were called inactive; ? = inconclusive; · = no result given; & = joins results of further samples; [ ] = remark or other dose. Hits appear at their usual frequency; about 1% have a hit in one of these screens.
canonical_smiles	TRPML1 blocker	D2 agonist	TRPML1 agonist	CtBP-E1A inh	Six1-Eya2 inh	PINK1 modulator
COc1ccc(NC(=O)COc2ccccc2Cc2ccccc2)cc1S(N)(=O)=O	10	-1.2	-1.3	-23	-2	1.0%
CCCP(=O)(CCC)CCP(=O)(c1ccccc1)c1ccccc1	47	-1.8	0.0	19	-6	-0.6%
O=C1c2cccc3c(O)ccc(c23)C(=O)N1c1ccc(Cl)cc1	-8	?	104*	-19	-5	3.7%
CCN(CC)c1ccc(S(=O)(=O)N2CCOCC2)cc1NC(=O)COC(=O)COc1ccccc1C	-10	3.5	0.2	-5	0	5.0%
COCCCNC(=O)c1c(NC(=O)c2cccs2)sc2c1CCCC2	-7	-3.9	1.3	5	15	4.7%
O=C(NCc1cccnc1)c1ccc(N2CCOCC2)c([N+](=O)[O-])c1	-4	4.0	-0.5	11	6	-3.0%
CC(=O)c1ccc(NC(=S)NCc2ccc(Cl)cc2Cl)cc1	?	-18	0.1	0	-8	?
Cc1occc(=O)c1OC(=O)Nc1ccc(Cl)c(Cl)c1	-12	3.3	0.4	5	12	?
CC(=O)Nc1cc(-c2cccc(C)c2)cn2c(-c3ccc(S(C)(=O)=O)cc3)cnc12	·	14	-0.5	0	-8	4.9%
O=C(Nc1ccccc1N1CCCCC1)c1ncoc1-c1cccc(F)c1	-3	-4.7	-0.4	·	20	1.4%
COc1cc(C(=O)Nc2nnc(C3=COCCO3)o2)cc(OC)c1OC	-1	0.0	-0.5	1	-12	1.3%
CN(C(=O)c1ccc2c(c1)OCO2)C1(C(=O)NC2CCCC2)CCCCC1	-5	-1.8	-0.5	3	-3	-1.2%
O=C(CNC(=O)c1ccc2c(c1)OCCO2)N/N=C/c1ccc(Cl)cc1	29	-0.7	5.1	1	0	1.1%
COCCn1c(SCC(=O)NCc2ccccc2)nnc1-c1ccco1	39	-3.1	-0.3	4	-3	-0.9%
CC[C@]12c3[nH]c4cc(CCC(=O)N(C)C)ccc4c3CCN1C(=O)[C@@H](CC(=O)NCc1ccco1)C[C@@H]2C(=O)N1CCN(C(=O)c2ccco2)CC1	-25	-0.8	1.1	0	22	-0.3%
O=C(c1ccccc1)C1CCN(C(=O)c2cccs2)CC1	-22	-0.9	-0.3	-9	3	-1.6%
O=C(NN1C(=O)/C(=C/c2ccc(O)cc2)SC1=S)c1ccccc1O	16	-5.7	13	·	-23	-0.3%
CC(=O)N1CCCc2cc(S(=O)(=O)N(C)CC(=O)Nc3ccccc3)ccc21	-3	-0.8	-1.0	6	-7	2.0%
CC(=O)N1c2ccc(S(=O)(=O)N3CCC(C(=O)NCc4ccccc4)CC3)cc2CC1C (stereo not drawn)	22	-2.2	-0.7	-1	0	-0.5%
CCN1CCN(CCC(=O)Nc2ccccc2)CC1	2	-2.3	0.7	1	1	0.0%
CCOC(=O)CN1CC23C=CC(O2)C(C(=O)NCCc2ccccc2)C3C1=O (stereo not drawn)	-11	-4.2	-0.1	5	2	0.3%
COc1ccc(CCNC(=O)CSc2cc(=O)n(C)c3ccccc23)cc1OC	10	·	-0.7	·	·	0.7%
Cc1onc(-c2ccccc2Cl)c1C(=O)N1CCN(C=O)CC1	1	2.9	0.2	9	4	-0.5%
COc1cccc(-c2cc3nc(NCc4ccc5occc5c4)n(C)c(=O)c3s2)c1	·	-3.3	-0.4	4	-3	3.7%
O=C(c1ccccc1Cl)N1CCN(c2ncccn2)CC1	-1	-0.3	0.1	6	1	-1.3%

# (list continues)
canonical_smiles	TRPML1 blocker	D2 agonist	TRPML1 agonist	CtBP-E1A inh	Six1-Eya2 inh	PINK1 modulator
O=C(Nc1ccc2c(c1)OCO2)c1sc2cc(Cl)ccc2c1Cl	25	0.3	0.9	10	7	1.1%
Clc1ccc(OCc2nc(-c3ccc(-n4cccc4)cc3)no2)cc1	9	·	0.1	·	·	6.5%
O=C(Nc1cccc(C(F)(F)F)c1)N1CCC(CN2CCCCCC2)CC1	-13	·	0.9	·	·	1.2%
COc1ccc(OC)c(NC(=O)C2CCCN(S(=O)(=O)c3ccc(-n4cnnn4)cc3)C2)c1 (stereo not drawn)	16	-1.2	0.2	-2	-7	0.9%
NS(=O)(=O)c1ccc(NC(NC(=O)c2cccnc2)C(Cl)(Cl)Cl)cc1 (stereo not drawn)	-16	0.6	0.0	-2	6	1.3%
C[C@]1(OC(=O)/C=C/c2ccccc2)C[C@@H](O)[C@]2(O)C=CO[C@@H](O[C@@H]3O[C@H](CO)[C@@H](O)[C@H](O)[C@H]3O)[C@@H]21	6	2.3	-0.9	-1	0	-0.9%
CCC(=O)Nc1nnc(SCC(=O)NCCc2ccc(OC)c(OC)c2)s1	-2	-4.1	2.8	10	9	0.4%
O=C(Cc1ccccc1F)Nc1ccccc1N1CCCC1	8	-0.4	0.7	-1	-6	-0.3%
CCN(CC)CCCNc1nc2ccccc2c2nc(-c3ccncc3)nn12	8	-7.1	-0.3	-19	-9	-2.1%
N[C@@H](Cc1ccccc1)C(=O)N1CCC(C(=O)NCC(=O)NCC(=O)O)CC1	0	0.1	-1.0	0	15	2.6%
COc1ccccc1NC(=O)c1cc(C)nc2ccccc12	-17	0.3	0.3	·	-1	-0.1%
CC(=O)Nc1ccc(C(=O)OCC(=O)NCCC2=CCCCC2)cc1	-5	-5.2	-1.0	3	0	-0.3%
N#CC1=C(N)OC2=C(C(=O)CC(c3ccccc3)C2)C1c1cccnc1 (stereo not drawn)	-12	-0.6	-0.1	7	11	-0.8%
CCCn1nnc(NC(=S)NC(=O)c2ccc(-c3ccc(Br)cc3)o2)n1	31	-11	1.6	-3	2	-0.9%
COc1ccc(CNC(=O)c2c(O)c3cc(OC)c(OC)cc3[nH]c2=O)cc1OC	-17	3.9	-0.3	5	9	3.7%
CCCOc1ccc(Cn2c(O)cc(=O)[nH]c2=O)cc1	10	-3.4	4.0	1	-2	-0.5%
N#CCSc1nccc(-c2cc(Cl)sc2Cl)n1	6	-1.3	2.0	3	12	-0.1%
CCC(C)NC(=O)C1CCN(C(=O)c2ccc(-n3ccc4ccccc43)s2)CC1 (stereo not drawn)	7	·	0.8	·	·	-0.6%
CCC(C)NC(=O)Cn1ccc2cc(S(=O)(=O)N3CCCCCC3)ccc21 (stereo not drawn)	-8&-4	-1.3	-0.6&0.5	4	9	0.1%&0.6%
Cc1ccccc1NC(=O)CSc1nnnn1C	-12	-1.8	-0.3	4	0	0.8%
CCOC(=O)C1(CCc2ccccc2)CCN(C(=O)c2ccoc2)CC1	0	-0.8	0.2	1	0	0.7%
N=c1c2c3c(sc2ncn1CCCO)CCCC3	-23	-1.8	-0.9	1	-5	0.9%
COc1ccc(OC)c(NC(=O)C2(C)CCN2C(=O)CC2CC2)c1 (stereo not drawn)	·	-1.4	-0.8	0	2	0.0%
Cc1cc(C)cc(OCC(=O)NN2C(=O)c3ccccc3C2=O)c1	-5	-0.3	-0.6	-19	7	-0.4%
CCc1cc(C(=O)c2ccc(OC)cc2)c(NC(=O)CN2CCCC2)s1	60	-2.2	6.2	·	-4	5.9%

# Additional compounds.
canonical_smiles	TRPML1 blocker	D2 agonist	TRPML1 agonist	CtBP-E1A inh	Six1-Eya2 inh	PINK1 modulator
Cc1ccc(C(=O)N/C(=C\c2cccs2)C(=O)NCc2ccncc2)cc1	-7	0.7	0.0	6	-1	24%[38.3 µM]
Cc1cccc(COCC(Cc2ccccc2)N2CCN(C(=O)c3ccc(C(F)(F)F)cc3)CCC2=O)c1 (stereo not drawn)	57	-2.6	4.5	-1	-5	0.9%
COc1ccc(OCCN2C(=O)c3ccccc3C2=O)c([N+](=O)[O-])c1	6	-3.3	2.2	-6	-6	1.4%
CCC(C)(C)n1nnnc1C(c1ccc(O)cc1)N1CCc2ccccc2C1 (stereo not drawn)	-3	-6.4	-0.4	-7	1	1.0%
O=C(CCc1ccccn1)N1CCCC(N2CCN(c3ccc(F)cc3)CC2)C1 (stereo not drawn)	7	-3.7	-0.3	0	2	0.0%
Cc1ccccc1CN(c1ccc(C(=O)N2CCN(C)CC2)cc1)S(C)(=O)=O	-15	-0.5	0.1	9	8	2.9%
Cn1c(Cl)c(/C=N/OC(=O)c2ccc(Cl)cc2)c2ccccc21	10	0.6	0.6	0	10	0.2%
Cc1cc(F)ccc1N1CCC(N2CCN(CCC(C)C)C(CCO)C2)CC1 (stereo not drawn)	3	-2.3	-0.3	-11	-3	1.4%
CO/N=C/NC(=O)c1c(OC)ccnc1Oc1ccc(Cl)cc1	-10	-3.3	1.2	14	5	14%[38.3 µM]
CCC(=O)Nc1ccc2nc(SCC(=O)N3CCOCC3)sc2c1	-9	-4.1	-0.5	-16	-3	0.5%
COc1ccc(NC(=O)C2CCCNC2=O)cc1 (stereo not drawn)	·	-3.1	·	9	1	0.7%
CC1Sc2ccc(S(=O)(=O)CCC(=O)N(C)Cc3ccco3)cc2NC1=O (stereo not drawn)	?	2.0	0.7	-1	-2	0.0%
O=C(NCCCN1CCCC1=O)C(=O)NCC1OCCN1S(=O)(=O)c1ccc(Br)cc1 (stereo not drawn)	-8	-4.0	0.3	1	6	-0.5%
CCOc1ccc2c(c1)NC(c1ccc(OCC)c(OCC)c1)=NC(c1ccc(F)cc1)=N2	8	·	1.5	·	·	0.7%
COc1ccc(Cl)cc1NC(=O)C(C)n1nnc2sc3c(c2c1=O)CCCC3 (stereo not drawn)	3	·	1.5	·	·	1.0%
COc1cccc(C(=O)OCCN2CCOCC2)c1	-10	-4.8	0.6	·	-4	1.2%
O=C(Nc1cccc(Oc2ccccc2)c1)C1Cc2c(-c3ccccc3)ccnc2O1 (stereo not drawn)	·	-5.4	0.1	-3	-7	5.0%
COc1ccc2ccc(O)c(CN3CCN(S(=O)(=O)c4cc([N+](=O)[O-])ccc4C)CC3)c2c1	2	14	3.2	-27	-16	1.9%
O=C(O)CC(CC(=O)Nc1ccc(C(=O)O)cc1)c1ccccc1 (stereo not drawn)	·	-18	·	5	6	0.1%
COc1cc(S(=O)(=O)N2CCN(C(=O)c3cccs3)CC2)ccc1NC(C)=O	-8	0.7	-0.1	1	-1	0.7%

# Copied from the results shown (4 entries):
canonical_smiles	TRPML1 blocker	D2 agonist	TRPML1 agonist	CtBP-E1A inh	Six1-Eya2 inh	PINK1 modulator
Cc1ccc(C(=O)N/C(=C\c2cccs2)C(=O)NCc2ccncc2)cc1	-7	0.7	0.0	6	-1	24%[38.3 µM]
Cc1cccc(COCC(Cc2ccccc2)N2CCN(C(=O)c3ccc(C(F)(F)F)cc3)CCC2=O)c1 (stereo not drawn)	57	-2.6	4.5	-1	-5	0.9%
COc1ccc(OCCN2C(=O)c3ccccc3C2=O)c([N+](=O)[O-])c1	6	-3.3	2.2	-6	-6	1.4%
CCC(C)(C)n1nnnc1C(c1ccc(O)cc1)N1CCc2ccccc2C1 (stereo not drawn)	-3	-6.4	-0.4	-7	1	1.0%
